Assay outcomes from PubChem BioAssay.
Beta2AR agonist = beta2AR agonists driving receptor internalization, primary screen, cell-based, FAP fluorogen, flow cytometry. Beta-2 adrenergic receptor (Homo sapiens), P07550. Am2.2-beta2AR cells; reference of the scale not given here. response, % (no concentration beside the values). actives 0.43% (n = 340,000);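 active = response above a set limit, near 3 SD of response in nonfluorescent compounds, cut at about 42% in these data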;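 also: stock transfer was 100 nL into about 11 µL; a reference agonist was the positive control; negative values mostly stem from fluorescent compounds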
Target sequence (P07550 whole entry, looked up): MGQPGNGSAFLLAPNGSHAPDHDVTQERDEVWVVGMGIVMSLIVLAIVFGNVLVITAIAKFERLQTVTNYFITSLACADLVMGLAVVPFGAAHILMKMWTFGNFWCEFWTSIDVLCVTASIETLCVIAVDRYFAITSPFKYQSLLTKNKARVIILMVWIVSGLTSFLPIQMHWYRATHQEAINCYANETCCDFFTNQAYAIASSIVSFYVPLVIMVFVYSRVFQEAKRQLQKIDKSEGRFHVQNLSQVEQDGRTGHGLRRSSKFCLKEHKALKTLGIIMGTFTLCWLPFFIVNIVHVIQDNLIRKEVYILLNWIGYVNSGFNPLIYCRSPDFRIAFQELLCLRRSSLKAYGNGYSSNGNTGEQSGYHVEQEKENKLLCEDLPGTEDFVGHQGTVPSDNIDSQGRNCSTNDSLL
LANA-H2B inh = blockers of LANA interaction with H2A/H2B – biochemical, FP readout, HTS, primary screen; Protein LANA1 (Human herpesvirus 8 type P (isolate GK18)), Q9QR71; cell-free LANA-H2A/H2B peptide, fluorescence polarization; actives 0.6% (n = 320,000); inhibition, % (no concentration beside the values); in the data active = inhibition mostly above about 10%, no sharp cut-off; inactive = mostly below about 6.7%;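 also: stock transfer was 7.5 nL into about 10 µL; 0% = median of vehicle wells and 100% = median of positive control wells; one replicate is shown; the record names a cut of 25% in any replicate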
FGF22 binding = binders of human FGF22 protein, primary screen, FGF22 synaptogenesis inhibitor project, biophysical, thermal shift, single point; Fibroblast growth factor 22 (Homo sapiens), Q9HCT0; recombinant FGF22 thermal shift, SYPRO orange fluorescence; percent of sucrose octasulfate shift, DMSO zero; calls only at 9.99 µM; actives 1.5% (n = 340,000); AID 651658, 2012;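 active = melting point raised past a set limit in the mean and every replicate; three in four hits are not shown here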
ALR H2O2 inh = inhibitors of human ALR sulfhydryl oxidase, primary screen, biochemical, H2O2 detection, HRP-luminol luminescence, single point | FAD-linked sulfhydryl oxidase ALR (Homo sapiens), P55789 | purified ALR, DTT oxidation | inhibition, % (concentration not given with the values) | actives 3.8% (n = 290,000) | AID 485317, 2010;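 active = mean and each replicate at 75% or more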;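 also: stock transfer was 7.5 nL into about 7.5 µL; 0% = neutral wells and 100% = wells with inactivated enzyme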
Target sequence (P55789 whole entry, looked up): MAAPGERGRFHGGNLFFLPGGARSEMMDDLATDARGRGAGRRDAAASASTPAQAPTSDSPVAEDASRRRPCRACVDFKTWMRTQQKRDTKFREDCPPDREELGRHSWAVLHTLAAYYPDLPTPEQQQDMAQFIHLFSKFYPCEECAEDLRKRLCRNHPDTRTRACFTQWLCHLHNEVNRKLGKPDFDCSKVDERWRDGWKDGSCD
HNF4A DNA FP = change in binding of human HNF4A to DNA, primary screen, biochemical, fluorescence polarization, FITC-DNA | actives 0.3% (n = 360,000) | Hepatocyte nuclear factor 4-alpha (Homo sapiens), P41235 | activity change, % at 10 µM | 1 h; in the data active = activity change above about 30%, passing the limit was not always enough;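 also: controls were the assay level and a saturating level of protein; the project sought stronger binding though the title names inhibitors; some compounds called inactive have numbers as strong as hits; positive values seem to mean higher polarization but the record does not say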
UCH37 inh = inhibitors of human UCH37 deubiquitinase, primary screen, biochemical, Ub-AMC cleavage, fluorescence; purified proteasome/UCH37; Ubiquitin carboxyl-terminal hydrolase isozyme L5 (Homo sapiens), Q9Y5K5; inhibition, % (no concentration beside the values); actives 0.33% (n = 330,000);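 active = mean of two replicates above 20%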;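 also: 0% = compound-free wells with enzyme and 100% = wells lacking proteasome; stock transfer was 100 nL into about 20 µL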
Target sequence (Q9Y5K5 whole entry, looked up): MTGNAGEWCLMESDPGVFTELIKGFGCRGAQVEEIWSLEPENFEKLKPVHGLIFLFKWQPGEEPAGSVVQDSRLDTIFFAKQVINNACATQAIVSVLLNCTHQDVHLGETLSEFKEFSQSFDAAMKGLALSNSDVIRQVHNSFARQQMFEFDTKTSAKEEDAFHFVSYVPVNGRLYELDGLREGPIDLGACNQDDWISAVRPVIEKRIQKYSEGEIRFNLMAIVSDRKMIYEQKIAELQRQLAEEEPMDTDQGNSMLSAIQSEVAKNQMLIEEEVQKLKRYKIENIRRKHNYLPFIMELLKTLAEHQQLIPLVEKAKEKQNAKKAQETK
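Assay system: Proteasome-bound UCH37. Buffer or medium: pH 7.4 Tris-HCl (50 mM) with ovalbumin, ATP-MgCl2, DTT. Incubation: 30 min preincubation with enzyme, 25 min cleavage at room temperature. Measured by: fluorescence, ex 355 nm, em 460 nm. Read-out basis: percent inhibition. Control set: wells without proteasome as full block, compound-free enzyme plus substrate as uninhibited.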
Ecoli growth = E. coli growth inhibition, primary screen, OD600; Escherichia coli growth, 23 h; stronger effect = lower value; OD600 absorbance (no concentration beside the values); actives 0.21% (n = 330,000); AID 1053175, 2014;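 active = OD600 absorbance below the run mean of sample wells minus 3.6 SD, in any replicate, cut at about 0.56 in these data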;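 also: stock transfer was 300 nL into about 60 µL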
The depositor's hits bear a star; i = inactive; . = not tested or not shown. The list is partial; the hit share may differ from the screen's.

Values run as follows: Beta2AR agonist	LANA-H2B inh	FGF22 binding	ALR H2O2 inh	HNF4A DNA FP	UCH37 inh	Ecoli growth
- Cc1cccc(-c2noc(CCC(=O)NCCc3ccccc3)n2)c1
    1	-2.7	i	.	1.4	0.2	0.66
- CCN(CC(=O)NCc1cccs1)C(=O)c1cccc(S(=O)(=O)Nc2ccccc2OC)c1
    -4	2.4	i	-1	9.6	2.9	0.69
- COC(=O)CN1CCN(C(c2ccccc2)c2ccccc2)CC1
    12	0.5	.	-2	-7.5	-1.3	0.73
- C=CCn1c(SCC(=O)NCc2ccco2)nc2sc3c(c2c1=O)CCC3
    -2	-3.2	.	0	-0.4	5.9	0.68
- O=C(Nc1ccc(S(=O)(=O)Nc2nccs2)cc1)c1ccc(S(=O)(=O)N2CCOCC2)cc1
    -3	-2.0	.	-7	1.5	3.8	0.71
- Cc1ccc(S(=O)(=O)N2CCCCC2)cc1NC(=O)CSc1nnnn1C
    -2	1.5	.	-7	-4.2	2.2	0.68
- Cc1cccc(-c2nc3ccccc3c(=O)[nH]2)c1
    -10	-6.8	i	0	13	-0.3	0.69
- CNC1=C([N+](=O)[O-])CC([N+](=O)[O-])=C(N2CCNCC2)N1C
    3	-2.4	i	-7	-1.1	4.5	0.71
- CSCC[C@H](NC(=O)N1CCn2c1nc1ccccc12)C(=O)NCc1ccc(C)cc1
    -4	0.9	i	-8	-0.4	1.1	0.7
- CS(=O)(=O)c1ccccc1C(=O)Nc1cccc(-c2nc3ccccc3o2)c1
    9	-3.6	i	-4	1.0	2.5	0.7
- COc1ccc(C2=NNC(c3cccnc3)=Nc3ccc(OC)cc32)cc1
    -2	-1.0	i	-7	0.8	4.5	0.61
- CCCCn1nnc(NC(=O)c2ccco2)n1
    -16	-4.8	.	8	-0.8	-1.7	0.71
- CC(C)NC(=O)c1c(CSc2ccc(Cl)cc2)noc1C(=O)NCc1ccccc1
    3	-5.2	i	-11	3.9	6.7	0.7
- CCc1nnc(NC(=O)C2CC(=O)N(CCc3ccccc3)C2)s1 (centres undefined)
    2	0.5	.	-5	-0.6	1.4	0.67
- CCCC(=O)Nc1ccc(S(=O)(=O)Nc2cc(OC)nc(OC)n2)cc1
    -4	-4.7	i	-13	-1.9	3.6	0.65
- N#CCC(=O)N/N=C/c1cc([N+](=O)[O-])ccc1N1CCOCC1
    -1	1.4	i	14	-3.5	.	.
- CC(C)CC(=O)Nc1ccc2nn(-c3ccccc3)nc2c1
    5	-3.0	.	-4	8.0	-178	0.72
- C=CCNC(=O)C1CCC(CNc2nc(=S)[nH]c3ccccc23)CC1 (centres undefined)
    -7	-4.6	i	3	-0.1	1.7	0.68
- O=C(NCc1ccc(Cl)cc1)C1CCCN1C(=O)Nc1ccc(F)cc1 (centres undefined)
    7	0.7	i	-14	4.0	5.0	0.7
- COc1ccc(CC(=O)NCC2(c3ccc(OC)c(OC)c3)CCCC2)cc1
    -3	2.7	i	0	0.6	4.7	0.71
- FC(F)(F)c1cccc(/C=N/NC(=S)NC2CCCCC2)c1
    -4	3.1	.	.	-1.6	.	.
- Cc1nn(CC(=O)Nc2cccc(C(F)(F)F)c2)c(=O)c2cccn12
    -1	3.3	i	-3	1.7	3.3	0.66
- COc1ccc(C2=NN(C(=O)CSc3nc4ccccc4s3)C(c3ccc(OC)cc3)C2)cc1 (centres undefined)
    11	4.5	i	-22	1.8	1.1	0.75
- O=C(c1ccc(NS(=O)(=O)c2cccs2)cc1)N1CCN(c2ccccc2Cl)CC1
    0	-5.8	i	-3	1.3	4.4	0.69
- Cc1[nH]c2ccc(F)cc2c1CCN1C(=O)OC(C)(C)C1(C)O (centres undefined)
    -6	-7.3	i	55	1.3	6.6	0.71
- O=C(O)C1CC=CCC1C(=O)Nc1ccccc1C(=O)N1CCN(c2ccccc2)CC1 (centres undefined)
    -8	4.3	.	12	-2.5	1.8	0.79
- C[C@@]12CCC3[C@@](CCC4[C@@]3(C)CCC[C@@]4(C)C(=O)O)(CC1=O)C2 (some centres undefined)
    -1	7.6	i	6	-3.2	0.1	0.7
- CCCNC(=O)C1(CC2CC(c3ccccc3)=NO2)CCNCC1 (centres undefined)
    10	0.4	i	-1	-7.7	1.1	0.67
- O=C(ONC(=O)C1C2C=CC(C2)C1C(=O)NOC(=O)c1ccccc1)c1ccccc1 (centres undefined)
    14	.	i	.	2.5	2.4	0.61
- Cc1cccc(C(=O)NCC(=O)NCC(c2cccs2)N2CCOCC2)c1 (centres undefined)
    -2	1.2	i	-2	3.1	-0.7	0.69

(further entries)
Values run as follows: Beta2AR agonist	LANA-H2B inh	FGF22 binding	ALR H2O2 inh	HNF4A DNA FP	UCH37 inh	Ecoli growth
- CC(NC(=O)CSc1ncnc2nc[nH]c12)c1ccccc1 (centres undefined)
    -2	9.2	.	-1	-1.6	3.2	0.66
- CC(C)(C)NC(=O)CN(Cc1cccs1)C(=O)CCC(=O)Nc1nccs1
    2	0.2	i	3	2.2	0.2	0.66
- O=C(CSc1nnc2ncccn12)Nc1cccc2ccccc12
    -2	-3.5	i	.	-0.9	2.3	0.7
- C=CCn1c(SCC(=O)c2cccs2)nc2sc(C)cc2c1=O
    -3	-2.3	.	-15	-1.5	4.6	0.73
- COc1ccc(C2CC(c3ccccc3)=NN2S(=O)(=O)c2ccc(C)cc2)c(OC)c1 (centres undefined)
    0	1.3	.	.	31	0.9	0.73
- O=C(NNc1ccccn1)C(=O)NNS(=O)(=O)c1ccc(F)cc1
    6	-8.8	.	99*	6.0	1.9	0.73
- COc1ccccc1NC(=O)C(=O)NCC(c1ccco1)N1CCc2ccccc21 (centres undefined)
    5	3.2	i	-2	3.4	-0.2	0.7
- CCN(CC)C(=O)Cn1cc(S(=O)(=O)CC(=O)Nc2ccc3c(c2)OCCO3)c2ccccc21
    3	7.8	i	-12	-0.1	2.5	0.67
- COCC(C)NC(=O)Cc1ccc(Cl)cc1 (centres undefined)
    -1	1.6	i	-6	-0.3	-1.1	0.71
- COC(=O)[C@H]1[C@H](c2ccccc2)[C@H](C(=O)OC)O[C@H]1c1ccccc1
    2	-3.6	i	3	-0.6	3.8	0.64
- Oc1ccccc1CNCc1ccccc1
    2	-2.6	i	8	1.2	2.9	0.69
- Cc1onc(-c2ccccc2)c1C(=O)NC(=S)NNC(=O)c1ccc(O)cc1O
    1	1.1	.	92*	-1.2	-1.2	0.56
- COC(=O)c1ccc2ccccc2n1
    .	-1.9	.	.	-4.2	5.0	0.69
- Nc1nn(-c2ccccc2)c(N)c1N=Nc1ccccc1
    -1	-2.4	.	20	2.2	12	0.69
- CC(C)NC(=O)CCCN1C(=O)c2ccccc2Sc2ncccc21
    -1	-2.3	i	-15	-1.6	6.2	0.68
- CC(=O)Nc1cccc(NC(=O)c2cc([N+](=O)[O-])ccc2N2CCCCC2)c1
    1	.	i	.	-3.0	3.1	0.67
- CN(CC(=O)NCC1CCCCC1)CC(=O)Nc1ccc(F)cc1
    6	0.4	i	-14	-1.8	-1.6	0.69
- CC1(C)CC(=O)C2=C(C1)OC(N)=C(C#N)C2C#Cc1ccccc1 (centres undefined)
    11	2.1	.	71	2.9	-4.5	0.68
- Nc1cccc(C(=O)c2ccccc2C(=O)O)c1
    -3	.	i	.	0.7	6.0	0.69
- N#Cc1ccccc1S(=O)(=O)N1CCN(C(=O)c2cc(=O)[nH]c3ccccc23)CC1
    12	-2.6	i	-3	0.1	-17	0.73
- Cc1nnc(SCC(=O)Nc2nc(-c3ccc(F)cc3)cs2)[nH]c1=O
    4	-0.3	i	99*	0.1	.	.
- COCCCn1nnnc1SCC(=O)Nc1nc(C)c(C)s1
    1	2.3	.	61	1.1	0.8	0.71
- CC(C)CNc1nc2c(c(=O)n(C)c(=O)n2C)n1Cc1cccc(Br)c1
    4	-0.8	.	2	-0.7	3.0	0.69
- Cc1cc(Br)ccc1NC(=O)CN(C)C(=O)COc1cccc2c1OC(C)(C)C2
    3	0.8	i	8	0.1	3.7	0.7
- O=C(C1CCN(S(=O)(=O)c2cccnc2)CC1)N1CCN(C2CCCC2)CC1
    -10	2.1	.	.	-2.8	1.8	0.73
- CCc1ccccc1NC(=O)c1ccc2snnc2c1
    16	2.1	i	-1	-0.2	4.0	0.71
- O=C(COc1ccc2c(c1)OCO2)NCc1cccs1
    -1	7.9	i	.	-2.6	-0.9	0.64
- CCCCNC(=O)Cn1nc(C)c(S(=O)(=O)N2CCOCC2)c1C
    -4	0.9	i	3	3.1	1.1	0.7
- O=C(CSc1nccn1Cc1ccco1)Nc1ccccc1F
    0	3.8	i	-15	0.2	-1.7	0.74
- Cc1ccc(C(=O)Nc2ccccc2Oc2ccccc2)cc1[N+](=O)[O-]
    -11	2.6	.	3	-0.9	4.1	0.72

The results go on:
Values run as follows: Beta2AR agonist	LANA-H2B inh	FGF22 binding	ALR H2O2 inh	HNF4A DNA FP	UCH37 inh	Ecoli growth
- CCCOc1ccc(N2C(=O)C3ON(c4ccccc4)C(CCC)C3C2=O)cc1 (centres undefined)
    0	2.0	.	-5	0.1	-0.8	0.67
- COCCCn1c2nc3ccccc3nc2c2c(=O)n(Cc3cccs3)cnc21
    .	6.1	.	-45	.	-58	0.68
- O=C(Nc1ccc2c(c1)OCCO2)c1c(F)cccc1F
    1	-5.9	i	1	-0.7	1.9	0.71
- N#Cc1nc(-c2ccco2)oc1N1CCN(C(c2ccccc2)c2ccccc2)CC1
    3	-7.8	i	-4	0.7	-30	0.71
- CCOC(=O)CSc1nnc(CNC(=O)c2ccc(S(=O)(=O)N3CCCCC3)cc2)n1C
    5	3.6	.	.	-3.3	3.2	0.66
- Fc1ccc(Nc2nc(Oc3ccc4c(c3)OCO4)nc(N3CCOCC3)n2)c(F)c1
    -5	5.6	.	-6	-2.2	-0.6	0.71
- O=C(Nc1ccccc1C(=O)NCCc1ccccc1)c1cnccn1
    -7	-0.9	i	-2	-1.9	0.6	0.71
- CCCN(CCC)C(=O)CCSCCC(=O)N(CCC)CCC
    0	0.3	i	-1	-1.4	0.3	0.69
- COc1ccc(N2CCN(S(=O)(=O)CCNC(=O)c3ccc(Br)o3)CC2)cc1
    4	-11	i	46	5.7	0.0	0.68
- CCC1=NN2C(=N)/C(=C/c3cc(C)n(Cc4ccccc4)c3C)C(=O)N=C2S1
    0	-0.3	i	60	3.2	-4.1	0.7
- O=C(O)/C=C/C(=O)Nc1ccc(Cl)cc1C(=O)c1ccccc1
    -7	0.9	i	33	3.9	.	.
- COc1ccc(NC(=O)NCc2ccccn2)cc1OC
    5	2.0	.	-22	3.0	-1.9	0.66
- CCC(=O)N1CCc2cc(Br)cc(S(=O)(=O)NC3CCN(Cc4ccccc4)CC3)c21
    6	3.0	i	10	-1.0	1.7	0.66
- COc1ccc(C(=S)N2CCOCC2)cc1OC(=O)c1cccc([N+](=O)[O-])c1
    9	-3.2	i	14	-0.9	3.9	0.66
- COc1ccc(C2C(C(C)=O)=C(O)C(=O)N2c2ccccn2)cc1 (centres undefined)
    -6	3.0	i	-9	1.4	9.6	0.67
- NS(=O)(=O)c1ccc(CNC(=O)C(Cc2ccccc2)NS(=O)(=O)c2ccccc2F)cc1 (centres undefined)
    -2	-4.9	i	1	0.9	2.6	0.64
- CC(OC(=O)c1ccccc1NCCO)C(=O)NC1CCCCC1C (centres undefined)
    8	-1.7	i	.	-3.4	.	.
- CCCCC1=CC2=CC(=O)C(C)(OC(=O)CC)C(=O)C2=CO1 (centres undefined)
    -8	5.6	i	.	21	-0.7	0.65
